ALR inh: inhibitors of human sulfhydryl oxidase ALR. hit rate 3.8% among 290,000. inhibition, % (test concentration not listed). AID 485317. purified ALR, DTT oxidation, H2O2 HRP-luminol luminescence;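 active = mean and each replicate at 75% or more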;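 also: stock transfer was 7.5 nL into about 7.5 µL; 0% = neutral wells and 100% = wells with inactivated enzyme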
Target sequence (P55789 whole entry, looked up): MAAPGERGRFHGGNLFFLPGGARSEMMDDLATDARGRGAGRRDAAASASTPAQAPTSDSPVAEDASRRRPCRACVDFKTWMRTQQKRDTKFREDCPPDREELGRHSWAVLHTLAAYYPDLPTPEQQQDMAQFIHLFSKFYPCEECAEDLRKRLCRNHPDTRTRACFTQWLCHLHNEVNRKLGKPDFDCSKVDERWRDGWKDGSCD
HNF4A DNA FP: change in binding of human HNF4 alpha to DNA; P41235; HNF4a-FITC DNA binding, fluorescence polarization, 1 h; activity change, % at 10 µM; hit rate 0.3% among 360,000; AID 1224865; in the data active = activity change above about 30%, passing the limit was not always enough;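 also: controls were the assay level and a saturating level of protein; the project sought stronger binding though the title names inhibitors; some compounds called inactive have numbers as strong as hits; positive values seem to mean higher polarization but the record does not say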
UCH37 DUB inh: human UCH37 deubiquitinating enzyme inhibition. inhibition, % (no concentration beside the values). Q9Y5K5. purified proteasome/UCH37, Ub-AMC cleavage fluorescence. hit rate 0.33% among 330,000;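 active = mean of two replicates above 20%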;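 also: 0% = compound-free wells with enzyme and 100% = wells lacking proteasome; stock transfer was 100 nL into about 20 µL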
Target sequence (Q9Y5K5 whole entry, looked up): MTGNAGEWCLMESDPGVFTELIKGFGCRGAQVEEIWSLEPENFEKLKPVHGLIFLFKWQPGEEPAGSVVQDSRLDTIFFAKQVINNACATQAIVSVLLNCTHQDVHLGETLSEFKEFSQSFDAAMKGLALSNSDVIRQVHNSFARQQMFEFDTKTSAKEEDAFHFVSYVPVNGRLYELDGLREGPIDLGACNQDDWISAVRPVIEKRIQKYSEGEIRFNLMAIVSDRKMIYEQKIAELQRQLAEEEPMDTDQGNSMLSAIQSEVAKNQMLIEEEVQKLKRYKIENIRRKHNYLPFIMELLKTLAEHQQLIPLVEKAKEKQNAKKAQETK
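Signal – fluorescence, ex 355 nm, em 460 nm · System – Proteasome-bound UCH37 · Input – 0.15 nM proteasome as dispensed · Timing – 30 min preincubation with enzyme, 25 min cleavage at room temperature · Read-out basis – percent inhibition of cleavage signal versus uninhibited and no-proteasome wells · Medium – Tris-HCl pH 7.4 with ATP-MgCl2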
Ecoli rRNA inh: selective bacterial rRNA inhibition in E. coli | E. coli WT GFP vs humanized-ribosome RFP mutants, fluorescence, 24 h; active compounds read low; DMSO median 0, no signal -100 | GFP signal change (wild-type ribosome), % (test concentration not listed) | hit rate 1.6% among 350,000 | AID 720706;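 active = significant combined selectivity score with lowered wild-type GFP, culture density cut under 30%, mutant RFP and density less affected; inactive = any of these conditions unmet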; also: one replicate is shown; some compounds called inactive have numbers as strong as hits
FGF22 binding: shifts melting point of recombinant human FGF22 | Q9HCT0 | recombinant FGF22 thermal shift, SYPRO orange fluorescence; percent of sucrose octasulfate shift, DMSO zero | hit rate 1.5% among 340,000 | calls only at 9.99 µM;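 active = melting point raised past a set limit in the mean and every replicate; three in four hits are not shown here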
Target sequence (Q9HCT0 whole entry, looked up): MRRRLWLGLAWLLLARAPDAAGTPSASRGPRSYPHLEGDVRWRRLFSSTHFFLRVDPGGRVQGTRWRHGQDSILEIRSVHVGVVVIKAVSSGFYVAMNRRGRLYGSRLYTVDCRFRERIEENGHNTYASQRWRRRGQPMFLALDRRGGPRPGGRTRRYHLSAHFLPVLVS
Ecoli growth: E. coli growth inhibition; hit rate 0.21% among 330,000; OD600 absorbance (concentration not given with the values); Escherichia coli growth, OD600, 23 h; active compounds read low;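 active = OD600 absorbance below the run mean of sample wells minus 3.6 SD, in any replicate, cut at about 0.56 in these data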;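 also: stock transfer was 300 nL into about 60 µL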
Beta2AR agonist: agonists of human beta-2 adrenergic receptor inducing internalization. Am2.2-beta2AR cells, FAP receptor internalization, flow cytometry; reference of the scale not given here. response, % (test concentration not listed). hit rate 0.43% among 340,000. AID 504454;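 active = response above a set limit, near 3 SD of response in nonfluorescent compounds, cut at about 42% in these data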;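 also: stock transfer was 100 nL into about 11 µL; a reference agonist was the positive control; negative values mostly stem from fluorescent compounds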
Ecoli rRNA inh OD600: recorded beside Ecoli rRNA inh, whose call it bears; OD600 change, %; measured here: OD600 growth;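 optical density of the mix in the first replicate; 0 = DMSO median and -100 = no signal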
Ecoli rRNA inh RFP: also measured in Ecoli rRNA inh; calls as there; RFP signal change, %; measured here: RFP humanized mutant strains;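 first replicate; 0 = DMSO median and -100 = no signal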
Numbers without * were called inactive; i = inactive; nt = no result given.

Value order: Ecoli growth, UCH37 DUB inh, Ecoli rRNA inh OD600, ALR inh, FGF22 binding, HNF4A DNA FP, Beta2AR agonist, Ecoli rRNA inh, Ecoli rRNA inh RFP
CCOC(=O)c1c(C)[nH]c(C(=O)NNC(=O)c2ccccc2F)c1C
→ 0.65, -0.5, 13, 61, i, 3.4, 5, 10, 3.6
NC(=O)CN1CCN(C(=O)NC2CCCCC2)CC1
→ 0.73, 2.9, 11, -12, i, -1.4, 5, 6, 1.3
CCOC(=O)CSc1nnc(-c2ccccc2)c(=O)[nH]1
→ 0.64, 3.4, 7, -8, nt, 3.9, -3, 5, 4.1
Cc1oc2cc3oc(=O)c(CCC(=O)NCCCN4CCOCC4)c(C)c3cc2c1C
→ 0.68, -56, nt, nt, i, -0.9, 0, nt, nt
Cc1ccc(S(=O)(=O)NNC(=O)CCC(=O)Nc2ccc(C)c(C)c2)cc1
→ 0.66, 2.1, nt, 19, nt, 1.6, -5, nt, nt
O=C(CSc1ncn[nH]1)Nc1ccccc1C(=O)O
→ 0.72, 2.8, nt, -4, nt, 1.1, -9, nt, nt
O=C(COC(=O)c1cccs1)Nc1ccccc1C(F)(F)F
→ 0.71, 2.0, 15, -21, i, 0.2, -2, 9, -0.3
N#CCCSc1ncnc2c1oc1ccccc12
→ 0.75, 6.5, nt, 3, nt, -1.6, -7, nt, nt
CCCCn1c(N)c(N(CCC(C)C)C(=O)COC(=O)/C=C/c2ccc(F)cc2)c(=O)[nH]c1=O
→ 0.72, 1.3, 18, nt, i, -0.3, 7, 9, -0.8
CC(=O)C1=C(O)C(=O)N(CCc2c[nH]c3ccccc23)C1c1cccc(O)c1 (stereo not drawn)
→ 0.73, 10.0, nt, 1, nt, 2.5, 0, nt, nt
COc1ccc(S(=O)(=O)N2CCOC2CNC(=O)C(=O)NCc2ccco2)cc1OC (stereo not drawn)
→ 0.69, 0.5, 1, -1, i, -4.4, 1, 6, -1.2
Oc1ccccc1N1CCN(c2nnnn2-c2ccccc2)CC1
→ 0.71, 0.6, -1, 99*, i, -2.4, 1, 2, -0.1
CC(C)c1ccc(-c2nc(N3CCCCC3)[nH]c(=O)c2C#N)cc1
→ 0.72, -67, nt, nt, nt, -0.8, 3, nt, nt
Cc1[nH]c(=O)[nH]c(=O)c1S(=O)(=O)NCC12CC3CC(CC(C3)C1)C2
→ 0.7, 3.5, nt, 0, nt, 1.1, 2, nt, nt
Cc1cccc(OCc2nnc(SCC(=O)N3CCN(C(=O)c4ccco4)CC3)n2C)c1C
→ 0.69, -0.2, -8, -5, i, 2.9, 2, -1, -2.6
O=c1[nH]nnc2c1cnn2-c1ccccc1
→ nt, nt, 10, nt, i, 2.4, 2, 5, -1.0
Cc1ccc2[nH]c3c(c2c1)CN(C(=O)CN1CCCCC1)CC3
→ 0.63, 3.3, 3, -6, i, nt, nt, 6, 2.1
O=C(NCCc1ccccc1)c1cccnc1N1CCCCCC1
→ 0.69, 2.5, -7, 1, i, -2.5, -2, -4, -2.3
CCN(CC)c1nc2cc(C)ccc2cc1/C=C(\C#N)C(N)=O
→ 0.68, 7.4, 5, -1, i, 17, -3, 18, 47
CCOC(=O)[C@H]1[C@H]2COc3cc(OC)ccc3[C@@H]2N2C(=O)N(c3cccc(F)c3)C(=O)[C@@]12C
→ nt, -1.4, -4, -6, i, 6.5, -3, -4, 0.5
COc1ccc(/C(O)=C2/C(=O)C(=O)N(c3ncccn3)C2c2ccc(OC)c(OC)c2)cc1 (stereo not drawn)
→ 0.71, 13, nt, nt, nt, -1.2, 2, nt, nt
COCCn1cnc2c1c(=O)n(CC(=O)OCC(=O)NCCCc1ccccc1)c(=O)n2Cc1ccccc1
→ 0.7, -0.9, -10, -20, i, -1.3, -2, -13, -3.4
Cc1cc(=O)n(C)c(=O)n1CCCCOc1ccc([N+](=O)[O-])cc1
→ 0.73, 2.5, 0, 4, i, -2.3, -3, -9, -1.7
CC(Sc1ncn[nH]1)C(=O)NCc1ccccc1 (stereo not drawn)
→ 0.68, 0.2, 1, -16, i, 1.7, 1, 2, -2.5
Cc1cccc(NC(=O)CN(C)S(=O)(=O)c2cccs2)c1
→ 0.6, 0.5, -6.5*, -1, i, 5.2, -4, -27*, -3.6*
Cc1ccc(S(=O)(=O)c2nc(C(C)(C)C)oc2N2CCOCC2)cc1
→ 0.67, 5.1, nt, 31, nt, -0.8, -9, nt, nt
CCN(CC)CCNC(=O)c1cc2cc(Br)ccc2s1
→ 0.66, 4.5, 0, -16, i, 1.1, 0, -4, 3.4
COc1ccc(NC(=O)CSc2nnnn2C2CCCCC2)c(OC)c1
→ 0.64, 1.1, -11, 2, i, 0.6, 2, -1, 5.4
CCCCNC(=O)C1CC(c2cccc(F)c2)=NO1 (stereo not drawn)
→ 0.66, 0.7, 12, -1, i, 3.0, -3, 8, 3.3
NC(=S)N/N=C1\CC(n2nnn(-c3cccc(Cl)c3)c2=S)C2COC1O2 (stereo not drawn)
→ nt, nt, 9, 38, i, 1.9, -2, 4, 5.0
CC(C(=O)NCc1ccco1)n1nc(-c2ccccc2)c2cc(Cl)ccc21 (stereo not drawn)
→ 0.78, -6.8, 2, 27, i, 3.9, 0, -4, -2.6
O=C(O)CCC(=O)N1CN2CN(C(=O)CCC(=O)O)CC([N+](=O)[O-])(C2)C1
→ 0.66, 1.2, 2, nt, i, 7.0, 0, 7, -1.0
O=C(NCc1cn2ccsc2n1)Nc1cccc(Cl)c1
→ 0.62, 0.8, nt, -4, nt, 3.5, -1, nt, nt
Cc1ccc2[nH]c(O)c(N=O)c2c1
→ 0.71, 1.0, 2, nt, i, 0.6, 6, 6, 5.0
COc1ccc(CNC(=O)CN2CCC(NC(=O)c3cccc(OC)c3)CC2)cc1
→ nt, nt, -14, nt, i, 2.5, -5, -8, -1.6
Cc1csc2ncnc(N3CCN(C(=S)Nc4ccc(C(F)(F)F)cc4)CC3)c12
→ 0.67, 4.6, -56, -15, i, -3.1, -7, -31, 17
O=C(NCCCN1CCOCC1)Nc1ccc(Cc2ccc(NC(=O)NCCCN3CCOCC3)cc2)cc1
→ 0.64, -0.7, 1, -6, i, -1.9, 0, 3, 0.2
O=C(CSc1nc2ncccc2[nH]1)NC1CCCC1
→ 0.66, -1.1, 14, -3, i, -3.3, -2, 12, 1.5
Cc1ccc2c(c1)CC1(CN2C)C(=O)OC(C)(C)OC1=O
→ 0.72, 0.6, nt, nt, nt, 2.5, 0, nt, nt
Cc1ccc(CC2CC(=O)N(c3ccc(Cl)cn3)C2=O)cc1 (stereo not drawn)
→ 0.71, -0.3, nt, -4, nt, -2.4, 4, nt, nt
COc1ccccc1N(CC(=O)Nc1ccccc1C(=O)N1CCCC1)S(C)(=O)=O
→ 0.7, -2.5, -2, nt, nt, 4.6, 7, 1, -4.2
COc1ccc(-c2nnn(-c3cc(Cl)cc(Cl)c3)c2N)cc1
→ 0.7, 5.7, -5, -13, i, -0.6, 1, 0, -0.4
S=c1[nH]nc(COc2ccccc2)n1/N=C/c1c(Cl)cccc1Cl
→ nt, nt, -1, nt, i, -1.1, 9, 0, 3.9
COCCNC(=O)c1ccccc1NC(=O)c1cccc([N+](=O)[O-])c1C
→ 0.68, 1.0, 3, nt, i, -2.7, -10, 9, 2.9
CCC(=O)Nc1ccc(C(=O)NNC(=O)CCCCC(=O)NNC(=O)c2ccc(NC(=O)CC)cc2)cc1
→ nt, nt, 15, nt, i, -4.0, nt, 7, -1.3
O=C(Nc1ccn(Cc2c(F)c(F)cc(F)c2F)n1)c1ccc(COc2ccc(Cl)cc2Cl)o1
→ 0.74, 4.6, nt, 2, nt, -5.3, 2, nt, nt
O=C(COc1ccc(Br)cc1Br)NN1C(=O)c2ccccc2C1=O
→ 0.61, 0.2, -5, -4, i, -0.9, 6, 6, -0.8
NC1=NC(c2ccccc2)N=C(Nc2ccccc2)N1 (stereo not drawn)
→ nt, nt, 11, -8, i, nt, nt, 3, 0.2
Cc1ccnc(NS(=O)(=O)c2ccc3ccccc3c2)n1
→ 0.63, 1.0, nt, -28, nt, 2.7, -6, nt, nt
CC(=O)c1cccc(NS(=O)(=O)c2ccc(NC(=O)N3CCCCC3)cc2)c1
→ 0.72, -2.8, -1, -8, i, 1.6, 1, -1, -2.6
CCCN(CC1CC1)C(=O)CCc1nnc(C(OC)c2ccccc2)o1 (stereo not drawn)
→ 0.64, -1.6, -3, -11, i, -3.0, 1, 4, 0.0
Cc1cccc(NC(=O)c2cc(Cl)sc2Cl)c1C
→ 0.72, 4.1, nt, -4, i, -1.4, 8, nt, nt
Cc1ccccc1N1CCN(C2CCCN(C(=O)c3ocnc3C)C2)CC1 (stereo not drawn)
→ 0.73, 0.6, 8, 33, i, -3.1, 7, 13, 8.2

Of the compounds above, these contain an aryl thioether with sulfur outside any ring:
Value order: Ecoli growth, UCH37 DUB inh, Ecoli rRNA inh OD600, ALR inh, FGF22 binding, HNF4A DNA FP, Beta2AR agonist, Ecoli rRNA inh, Ecoli rRNA inh RFP
CCOC(=O)CSc1nnc(-c2ccccc2)c(=O)[nH]1
→ 0.64, 3.4, 7, -8, nt, 3.9, -3, 5, 4.1
O=C(CSc1ncn[nH]1)Nc1ccccc1C(=O)O
→ 0.72, 2.8, nt, -4, nt, 1.1, -9, nt, nt
N#CCCSc1ncnc2c1oc1ccccc12
→ 0.75, 6.5, nt, 3, nt, -1.6, -7, nt, nt
Cc1cccc(OCc2nnc(SCC(=O)N3CCN(C(=O)c4ccco4)CC3)n2C)c1C
→ 0.69, -0.2, -8, -5, i, 2.9, 2, -1, -2.6
CC(Sc1ncn[nH]1)C(=O)NCc1ccccc1 (stereo not drawn)
→ 0.68, 0.2, 1, -16, i, 1.7, 1, 2, -2.5
COc1ccc(NC(=O)CSc2nnnn2C2CCCCC2)c(OC)c1
→ 0.64, 1.1, -11, 2, i, 0.6, 2, -1, 5.4
O=C(CSc1nc2ncccc2[nH]1)NC1CCCC1
→ 0.66, -1.1, 14, -3, i, -3.3, -2, 12, 1.5

This is a subset; the hit share may differ from the screen's.
